# Source: PubChem
# Env fusion inh: inhibitors of HIV-1 Env-driven cell-cell fusion, primary screen, HeLa-JRFL effector, CEM21 target cells, luciferase. inhibition, % at 12.3 µM. actives 1.1% (n = 360,000). AID 651610, 2012;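 active = mean replicate inhibition score of at least 50 and every replicate individually at or above 50; inconclusive = only one of the two criteria met; inactive = mean below 50 and not all replicates reaching 50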;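 note: 0% = plate neutral controls and 100% = maraviroc near 300 nM; one replicate is shown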
# UUG fidelity: modulators of yeast start codon fidelity, primary screen, whole organism, S. cerevisiae, single point, plate reader | S. cerevisiae UUG-firefly luciferase reporter, luminescence/redox ratio | activity score, % at 18.7 µM | actives 0.13% (n = 350,000) | AID 602363, 2012;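 active = replicate mean at a twofold rise or more, about +100% in these data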;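 note: firefly luciferase made from a UUG start codon reports start codon fidelity; reporter light over untreated wells divided by growth signal over untreated wells; some hits fall short of that in this replicate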
# PABP FP inh: PABP poly(A) RNA binding inhibitors, primary screen, biochemical, fluorescence polarization, uHTS; Polyadenylate-binding protein 1 (Homo sapiens), P11940; inhibition, % at 35 µM; actives 1% (n = 290,000); AID 2014, 2009;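 active = 50% or more with normal probe brightness, or confirmed in later tests; inconclusive = above 50% with abnormal brightness, or retests that disagree; inactive = below 50% or failed in later tests; about a fifth of its hits are not listed in these tables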;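 note: calls also rest on retests at 20 µM and on dose response follow-up; controls were probe without protein and protein plus probe with vehicle; some compounds called inactive have numbers as strong as hits; many hits fall short of the cut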
# Target sequence (P11940 whole entry, looked up): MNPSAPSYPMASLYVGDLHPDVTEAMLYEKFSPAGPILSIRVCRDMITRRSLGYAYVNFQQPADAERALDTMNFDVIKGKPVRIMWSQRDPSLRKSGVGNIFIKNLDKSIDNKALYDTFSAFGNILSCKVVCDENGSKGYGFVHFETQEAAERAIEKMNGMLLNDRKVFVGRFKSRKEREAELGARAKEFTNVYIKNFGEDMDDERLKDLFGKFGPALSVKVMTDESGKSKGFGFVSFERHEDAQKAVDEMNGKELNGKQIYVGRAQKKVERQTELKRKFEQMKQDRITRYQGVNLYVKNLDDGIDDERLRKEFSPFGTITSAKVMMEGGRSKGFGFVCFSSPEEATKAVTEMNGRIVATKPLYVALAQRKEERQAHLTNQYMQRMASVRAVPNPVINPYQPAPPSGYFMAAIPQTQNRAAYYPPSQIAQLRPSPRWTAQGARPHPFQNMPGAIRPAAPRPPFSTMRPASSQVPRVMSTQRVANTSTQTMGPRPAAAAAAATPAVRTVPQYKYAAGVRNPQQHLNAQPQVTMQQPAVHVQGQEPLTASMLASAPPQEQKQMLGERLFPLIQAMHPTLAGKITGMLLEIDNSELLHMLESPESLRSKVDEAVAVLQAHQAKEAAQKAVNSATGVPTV
# CSC inhib: cancer stem cell viability inhibitors, primary screen, luminescence; cancer stem cell-like cells viability; inhibition, % at 7.5 µM; actives 1.1% (n = 300,000);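 active = mean at 75% or more and at least half the replicates too; inconclusive = mean and replicates disagree; tested in HMLE shEcad cells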;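 note: 0% = median of negative and 100% = median of positive control wells; the first replicate is given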
# Rce1 inhib: yeast Rce1p protease inhibitors, primary screen, biochemical, fluorescence, cell-free homogeneous; CAAX prenyl protease 2 (Saccharomyces cerevisiae (strain ATCC 204508 / S288c)), Q03530; yeast membranes, quenched prenylated peptide cleavage fluorescence; calls only; actives 0.27% (n = 290,000);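 active = fall in fluorescence gain of 50% or more versus controls, with final raw signal at or below 3038400; inconclusive = same 50% fall but final raw signal above 3038400; inactive = fall in fluorescence gain under 50%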;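 note: plate controls were neutral control wells for no effect and wells lacking membranes for full effect; tested at 10 µM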
# Target sequence (Q03530 whole entry, looked up): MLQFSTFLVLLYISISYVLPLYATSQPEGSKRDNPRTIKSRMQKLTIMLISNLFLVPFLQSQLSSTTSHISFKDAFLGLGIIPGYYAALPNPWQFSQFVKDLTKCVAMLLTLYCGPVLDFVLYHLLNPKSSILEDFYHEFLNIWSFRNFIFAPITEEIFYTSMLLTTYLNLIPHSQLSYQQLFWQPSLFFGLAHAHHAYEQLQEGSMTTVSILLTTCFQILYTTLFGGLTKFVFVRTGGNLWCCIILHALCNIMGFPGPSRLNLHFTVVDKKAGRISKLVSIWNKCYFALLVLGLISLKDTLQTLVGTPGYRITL
# eIF4H FP inh: human eIF4H binding inhibitors, primary screen, translation initiation inhibitor project, biochemical, uHTS, fluorescence polarization; eIF4H fluorescence polarization binding assay; Eukaryotic translation initiation factor 4H (Homo sapiens), Q15056; actives 0.94% (n = 290,000); inhibition, % at 35 µM;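 active = 50% or more with normal probe brightness, or confirmed in later tests; inconclusive = above 50% with abnormal brightness, or retests that disagree; inactive = below 50% or failed in later tests; about a fifth of its hits are not listed in these tables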;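 note: calls also rest on retests at 20 µM and on dose response follow-up; 0% = protein and probe with vehicle and 100% = probe without protein; strong numbers were not always called active; many hits fall short of the cut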
# MT1-MMP act inh: blockers of MT1-MMP proenzyme processing, primary screen, HT1080 RFP-PRO-GFP cells, GFP/RFP fluorescence. Matrix metalloproteinase-14 (Homo sapiens), P50281. actives 0.061% (n = 360,000). AID 651647, 2012. GFP/RFP ratio change, % at 20 µM. GFP/RFP ratio fluorescence, overnight; percent of plate control window, DMSO zero;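 active = GFP/RFP ratio change of at least 30% with cell ATP level not reduced by more than half and red fluorescence within 50% of control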; note: strong numbers were not always called active
#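 Assay system: HT1080 RFP-PRO-GFP cells | Dosing: 20 µM single dose, 1% DMSO | Incubation: Cells overnight before dosing, compound overnight, 37 °C, 5% CO2 | Evaluation: GFP/RFP fluorescence ratio | Control set: DMSO-only wells and HT1080 RFP-L50D-GFP cell wells as references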
# eIF4H FP inh retest: further read-out of eIF4H FP inh, marked with its call; inhibition, %; compound at 20 µM; confirmation average;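 mean of two retest wells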
# PABP FP inh retest: further read-out of PABP FP inh, marked with its call; inhibition, %; compound at 20 µM; confirmation repeats;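 mean of two retest wells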
# MT1-MMP act inh RFP: also measured in MT1-MMP act inh; calls as there; RFP signal change, %; measured here: RFP expression control read;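 0 = vehicle wells; hits needed this value within 50% of zero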
# * marks the source's active call; other numbers are inactive results; i = inactive; u = inconclusive; x = no result given; & = joins results of further samples.
SMILES,Env fusion inh,UUG fidelity,PABP FP inh,CSC inhib,Rce1 inhib,eIF4H FP inh,MT1-MMP act inh,MT1-MMP act inh RFP,others
Cc1ccc(-n2c(SCC(=O)Nc3cccc(S(=O)(=O)NC4=NCCCCC4)c3)nc3ccccc3c2=O)cc1C,-49.5,-6.3,-15.6,-5.7,i,-4.9,-0.5,1.8,
CC(C)[C@H](NC(=O)c1ccccc1Cl)C(=O)OCC(=O)Nc1ccc(S(=O)(=O)N2CCOCC2)cc1,24.7,-2.4,x,-14.9,x,x,-1.8,0.6,
COc1cccc(CNC(=O)CCCSc2ccccc2)c1,0.8,-15.3,9.3,5.2,i,-1.5,0.0,1.6,
CSc1ccc(CN(C)C(=O)c2cc(S(=O)(=O)NCc3ccccc3)ccc2C)cc1,13.2,5.8,x,26.8,i,x,10.4,-26.1,
O=C(Cc1ccccc1)Nc1ccc(C(=O)NCC2COc3ccccc3O2)cc1 (stereo unspecified),-5.4,-17.7,1.6,-5.5,i,-6.8,5.5,0.1,
O=C(NC1CCCCC1)C(c1ccco1)N(C(=O)c1csnn1)c1cccc(Cl)c1 (stereo unspecified),16.8,5.2,3.9,-0.7,i,2.4,-0.7,1.2,
CCc1ccccc1NC(=O)C(Cc1ccccc1)c1nn[nH]n1 (stereo unspecified),-0.8,-16.9,4.0,-15.1,i,2.1,3.9,3.1,
CC(=NNC(=O)c1ccc2nc[nH]c2c1)c1ccc(Br)cc1,7.2,-25.3,x,0.5,x,x,9.5,5.7,
Cc1cc(C)cc(C(O)c2ncc(-c3cccc(C(F)(F)F)c3)[nH]2)c1 (stereo unspecified),-4.0,-21.3,x,x,x,x,11.6,-4.5,
CN(C)S(=O)(=O)c1ccc(Cl)c(NC(=O)COc2ccccc2[N+](=O)[O-])c1,8.6,-16.4,-13.6,-2.6,i,-3.4,-2.5,3.0,
CCN(CC)S(=O)(=O)c1ccc(N2CCCC2)c(NS(=O)(=O)c2ccc(F)cc2)c1,-46.3,-8.3,-2.1,x,i,-3.0,3.9,-1.1,
CC(=O)n1cc([C@H]2C=C(C(=O)N3CCN(Cc4ccccc4)CC3)O[C@@H](OCc3ccc(CO)cc3)C2)c2ccccc21,-25.2,11.8,14.1,2.3,i,3.3,-1.1,-4.1,
NC(=NCCc1ccccc1)NS(=O)(=O)c1ccc2ccccc2c1,-16.2,x,-1.3,16.7,i,7.0,1.7,5.5,
O=C(N/N=C/c1ccncc1)c1ccccc1,x,-23.8,2.2,-6.3,i,17.9,-1.1,1.3,
Cc1ccc(NC(=O)CSc2nncn2N)cc1C,-10.3,-16.4,4.4,-8.1,i,-4.8,-1.8,1.1,
Cc1ccccc1NC(=S)N(CCN1CCOCC1)Cc1ccccc1F,6.9,x,-3.1,1.5,i,-13.1,-0.5,-0.9,
COCC(C)n1c(SCC(=O)N2CCc3ccccc3C2)nc2ccccc2c1=O (stereo unspecified),33.5,x,2.8,28.7,i,0.7,-6.0,-11.2,
CC(C)c1ccc(OCC(=O)NC(C)c2ccccc2)cc1 (stereo unspecified),13.7,-3.3,3.6,-1.5,i,1.0,2.3,1.8,
O=S(=O)(c1ccc(F)c(F)c1)N1CCN(c2ccccn2)CC1,4.0,3.1,0.7,-7.6,i,0.6,0.0,-0.6,
CC(C)[C@H](NC(=O)[C@@H]1Cc2ccccc2CN1)C(=O)Nc1ccc2c(c1)OCO2,-5.4,x,9.0,16.8,i,13.8,0.0,4.3,
C#Cc1ccc(CN2CCC(Oc3cc(C(=O)NC4CC4)ccc3OC)CC2)cc1,-3.2,-4.8,-2.5,x,i,0.3,-2.3,1.8,
CCCCCc1ccc(C(=O)CCCC)c(=S)[nH]1,15.4,-23.5,19.1,1.0,i,6.8,-20.7,-27.0,
CCOC(=O)CCc1nc2ccccc2[nH]1,x,-15.3,-0.9,-4.3,i,-11.4,2.4,-0.6,
CCOC(=O)C(Cc1nc(OCc2ccccc2)cc(OCc2ccccc2)n1)=NO,-9.5,-0.7,x,x,x,x,-5.8,-11.7,
Clc1cccc(C2Nc3cccc4cccc(c34)N2)c1,-0.1,-23.3,40.2*,3.3,i,52.7*,-5.8,4.5,eIF4H FP inh retest=100.0*;PABP FP inh retest=84.0*
CCOC(=O)N1CCC(NCCNC(=O)c2ccc(Cl)cc2)CC1,-21.4,x,1.2,-16.7,i,6.8,-1.5,-2.4,
Cc1c(NC(=S)NNC(=O)CCC(=O)O)c(=O)n(-c2ccccc2)n1C,0.9,-9.8,-2.7,-8.0,i,-1.1,5.3,1.9,
Cc1cc(C(N)=O)c2cc(Br)ccc2n1,-23.1,x,-0.3,-1.9,i,4.6,-1.8,-4.9,
Cc1cc(C)nc(NS(=O)(=O)c2ccc(NS(=O)(=O)c3ccccc3)cc2)n1,x,-31.2,-1.0,-5.3,i,2.1,5.8,-0.1,
Cc1cc(C)n(-c2ccc(Cl)c(C(=O)NCc3ccccc3)n2)n1,-7.7,x,9.7,2.2,i,4.3,3.0,-7.1,

# A draw from above in order of count of non-hydrogen atoms, ascending.
SMILES,Env fusion inh,UUG fidelity,PABP FP inh,CSC inhib,Rce1 inhib,eIF4H FP inh,MT1-MMP act inh,MT1-MMP act inh RFP,others
Clc1cccc(C2Nc3cccc4cccc(c34)N2)c1,-0.1,-23.3,40.2*,3.3,i,52.7*,-5.8,4.5,eIF4H FP inh retest=100.0*;PABP FP inh retest=84.0*
CCOC(=O)N1CCC(NCCNC(=O)c2ccc(Cl)cc2)CC1,-21.4,x,1.2,-16.7,i,6.8,-1.5,-2.4,
Cc1cc(C)nc(NS(=O)(=O)c2ccc(NS(=O)(=O)c3ccccc3)cc2)n1,x,-31.2,-1.0,-5.3,i,2.1,5.8,-0.1,

# Other compounds:
SMILES,Env fusion inh,UUG fidelity,PABP FP inh,CSC inhib,Rce1 inhib,eIF4H FP inh,MT1-MMP act inh,MT1-MMP act inh RFP,others
O=C(/C=C/c1cccs1)Nc1cccc(NC(=O)/C=C/c2cccs2)n1,-17.9,-33.6,-9.4,6.0,i,-3.8,-31.2,-26.2,
Cc1cc(C(=O)CN2C(=O)NC(C)(CC(C)C)C2=O)c(C)n1-c1ccc2c(c1)OCO2 (stereo unspecified),12.3,-8.4,-3.2,2.9,i,-6.8,-0.3,-0.2,
CCCc1nnc(NC(=O)CCC(=O)N2CCN(Cc3ccc(C)cc3C)CC2)s1,-4.4,-6.1,-0.4,-11.8,i,-5.4,6.1,-6.2,
COc1cc(/C=N/n2nnnc2N)ccc1OCC(N)=O,x,-8.7,-0.3,-21.6,i,-4.1,-1.9,0.8,
O=C(NCc1ccco1)C1CCN(S(=O)(=O)N2CCC3(CC2)OCCO3)CC1,x,17.3,5.4,-13.7,i,3.9,1.8,2.1,
CC(=O)c1cc(CN2CCC(N3CCC(C(=O)NC(C)C)CC3)CC2)cs1,3.3,x,-13.6,-1.9,i,-4.7,6.5,4.6,
COc1cc2c(cc1OC)[C@@H](NC(=O)Cc1ccc(F)cc1)[C@H](OCc1ccccc1)C2,-12.2,-5.7,x,x,x,x,1.3,-0.7,
Cc1sc2nc(-c3ccccc3)[nH]c(=O)c2c1-c1ccccc1,x,x,10.9,-0.9,i,-7.3,x,x,
CC1(C)SC2C(NC(=O)COc3ccccc3)C(=O)N2C1C(=O)O (stereo unspecified),8.8,-14.6,4.2,-4.7&7.8,i,4.1,2.4&1.2,4.7&3.4,
CC1CN(C(=O)/C=C/c2cccc([N+](=O)[O-])c2)CC(C)O1 (stereo unspecified),x,x,x,0.5,i,x,-5.7,5.0,
CCC(=O)c1ccc(N2CCN(C(=O)c3ccccc3F)CC2)c(F)c1,4.5,x,-6.9,9.6,i,-4.0,2.1,6.6,
CC(=O)N/C(=N/c1nc(C)cc(C)n1)Nc1cccc(C)c1,4.0,-14.6,-7.7,-13.2,i,-7.9,-8.5,-3.7,
CC(C)[C@H](NC(=O)c1ccccc1)C(=O)OCC(=O)c1ccc2c(c1)NC(=O)CO2,-32.5,-10.4,-0.7,0.0,i,0.0,-1.4,1.5,
COc1ccccc1-c1cc(C(=O)Nc2cc(C)n(Cc3ccc(Cl)cc3)n2)no1,-49.5,-17.0,1.9,25.5,i,-18.9,1.7,-6.6,
Cc1cc(=O)oc2c(CN3CCOCC3)c(O)ccc12,2.6,-25.5,x,x,x,x,1.4,3.7,
COc1cc(C2C(C#N)=C(N)Oc3cc(C)oc(=O)c32)cc(OC)c1OC (stereo unspecified),5.7,x,-0.9,-14.1,i,7.7,-0.7,-0.9,
CN1CCN(NC(=O)c2cc([N+](=O)[O-])cc([N+](=O)[O-])c2)CC1,-81.0,11.6,-8.6,-0.2,i,0.1,3.5,2.6,
CNC(=O)/C(=N\O)c1ccccc1,x,x,7.4,x,i,-9.9,x,x,
COc1ccc(S(=O)(=O)NC2CCSc3ccccc32)cc1OC (stereo unspecified),27.4,-12.4,10.1,-2.4,i,-3.7,-0.1,0.8,
Fc1ccccc1CCNc1c2c(nc3ncnn13)CCCC2,32.6,-16.2,13.8,-32.9,i,-5.8,-2.9,-15.9,
CC(=O)NC(CC(=O)OCC(=O)N1c2ccccc2NC(=O)C1(C)C)c1ccccc1 (stereo unspecified),x,-4.5,x,-11.0,x,x,0.8,3.5,
CC(C)(C)N(Cc1ccccc1)C(=O)COC(=O)C1=NN(c2ccccc2)C(=O)CC1,3.2,-9.6,x,x,x,x,0.9,4.6,
CC1=CC(C)(C)Nc2ccc(OC(=O)CN3C(=O)c4cccc5cccc(c45)C3=O)cc21,40.9,-31.1,23.1,15.8,i,15.5,-64.8,3.2,
O=C(N/N=C/c1ccco1)c1ccc(C(=O)N/N=C/c2ccco2)o1,6.2,x,45.4,-3.5,i,u,-1.0,-6.1,PABP FP inh retest=9.4
CCCCNC(=S)NC(C)(C)CO,12.9,-5.6,-1.3,6.6,i,-4.8,6.6,11.3,
CCN(C(=O)CN1C(=O)S/C(=C\C=C\c2ccccc2)C1=O)C1CCS(=O)(=O)C1 (stereo unspecified),-12.3,-27.1,-2.3,-9.9,i,-1.1,-5.0,-3.1,
CN(C)c1ccc(/C(=N\O)c2ccccc2)cc1,13.3,10.7,11.8,6.9,i,4.6,4.9,-0.8,
O=C(CNC(=O)c1ccc([N+](=O)[O-])cc1)c1ccccc1,x,x,12.5,x,x,3.9,0.2,3.4,
CCCCN1C(=O)c2ccc(C(=O)NCc3ccco3)cc2C1=O,6.5,-6.9,0.3,6.3,i,1.3,-2.1,1.3,
CN(C(=O)c1ccccc1Cl)c1ccccc1C(=O)NCCc1ccccc1,4.3,6.2,-2.1,-0.3,i,9.8,0.6,0.8,
Cc1ccc(-c2nn3c(C)nnc3s2)cc1NC(=O)c1cccnc1,-99.9,-14.1,7.7,x,i,-8.5,0.3,4.3,
O=C(CSc1nc2ccccc2c(=O)[nH]1)c1ccc(O)cc1O,-10.1,x,3.1,x,i,-11.9,-5.8,-0.7,
CCC(C)NC(=O)C(=O)NCc1ccccn1 (stereo unspecified),8.3,x,4.5,3.7,i,-11.3,2.0,4.4,

# Not all compounds are listed; the hit share may differ from the screen's.
